From PubChem BioAssay
Ecoli rRNA inh: reduced GFP signal of wild-type E. coli, primary screen, bacterial rRNA inhibitor project, GFP/RFP fluorescence, OD600, single point; AID 720706, 2013; 350,000 compounds, 1.6% hits; GFP signal change (wild-type ribosome), % (concentration not given with the values); E. coli WT GFP vs humanized-ribosome RFP mutants, 24 h; hits give low values; DMSO median 0, no signal -100;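 active = significant combined selectivity score with lowered wild-type GFP, culture density cut under 30%, mutant RFP and density less affected; inactive = any of these conditions unmet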; note: one replicate is shown; some compounds called inactive have numbers as strong as hits
FGF22 binding: binders of human FGF22 protein, primary screen, FGF22 synaptogenesis inhibitor project, biophysical, thermal shift, single point. calls only at 9.99 µM. Fibroblast growth factor 22 (Homo sapiens), Q9HCT0. 340,000 compounds, 1.5% hits. recombinant FGF22 thermal shift, SYPRO orange fluorescence; percent of sucrose octasulfate shift, DMSO zero;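 active = melting point raised past a set limit in the mean and every replicate; three in four hits are not shown here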
Target sequence (Q9HCT0 whole entry, looked up): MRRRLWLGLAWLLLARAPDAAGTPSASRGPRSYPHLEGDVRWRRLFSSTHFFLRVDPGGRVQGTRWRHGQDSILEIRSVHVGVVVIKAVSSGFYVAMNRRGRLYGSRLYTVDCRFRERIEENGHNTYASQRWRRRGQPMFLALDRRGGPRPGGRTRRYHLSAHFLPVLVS
Ecoli rRNA inh OD600: recorded beside Ecoli rRNA inh, whose call it bears; OD600 change, %; measured here: OD600 growth;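 optical density of the mix in the first replicate; 0 = DMSO median and -100 = no signal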
Ecoli rRNA inh RFP: also measured in Ecoli rRNA inh; calls as there; RFP signal change, %; measured here: RFP humanized mutant strains;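 first replicate; 0 = DMSO median and -100 = no signal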
The depositor's hits bear a star; i = inactive; & = joins results of further samples. This is a subset; the hit share may differ from the screen's.

SMILES	Ecoli rRNA inh	Ecoli rRNA inh OD600	Ecoli rRNA inh RFP	FGF22 binding
CC(C)CC#Cc1cnc2c(c1)C(=O)N([C@@H](C)CO)C[C@H](C)[C@H](CN(C)C(=O)Nc1cccc(F)c1)O2	-1	3	3.7	i
COc1ccccc1CNC(=O)C[C@@H]1C[C@H]2c3cc(NC(=O)CN(C)C)ccc3O[C@H]2[C@H](CO)O1	2	14	0.7	i
C[C@@H]1CCCCO[C@@H](CN(C)C(=O)CCC(F)(F)F)[C@@H](C)CN([C@H](C)CO)C(=O)c2cc(NC(=O)Nc3ccccc3)ccc2O1	6	-2	-1.1	i
CCC(=O)N(C)C[C@@H]1Oc2cc(-c3ccc(F)cc3)ccc2S(=O)(=O)N([C@@H](C)CO)C[C@H]1C	-10	-22	-3.4	i
CN1C(=O)c2cc(NC(=O)Nc3cccc(Cl)c3)ccc2OC[C@@H]2O[C@H](CC(=O)NCCc3ccncc3)CC[C@H]21	-5	-13	3.3	i
C[C@H]1CN([C@@H](C)CO)C(=O)c2cccc(NC(=O)CCCCCC(=O)Nc3ccccc3N)c2O[C@H]1CN(C)Cc1ccncc1	2	4	-1.7	i
Cc1noc(C)c1NC(=O)Nc1cccc2c1O[C@@H](CN(C)CC1CC1)[C@H](C)CN([C@H](C)CO)C2=O	1	7	-0.9	i
COCc1cn(CC[C@H]2CC[C@@H](NC(=O)Nc3ccc(OC)cc3)[C@H](CO)O2)nn1	2	1	-0.8	i
COc1ccc(NC(=O)N(C)C[C@H]2Oc3ccc(NC(=O)Nc4cccc5ccccc45)cc3C(=O)N([C@@H](C)CO)C[C@@H]2C)cc1	0	3	-2.3	i
COCC#Cc1ccc2c(c1)O[C@H](CN(C)Cc1ccccc1)[C@H](C)CN([C@@H](C)CO)S2(=O)=O	-4	-7	-2.0	i
COc1ccc(S(=O)(=O)N(C)C[C@@H]2Oc3c(NS(C)(=O)=O)cccc3C(=O)N([C@H](C)CO)C[C@H]2C)cc1	-6	-2	-1.4	i
COc1ccccc1-c1cnc2c(c1)C(=O)N([C@@H](C)CO)C[C@H](C)[C@@H](CN(C)C(=O)c1ccncc1)O2	3	-9	-1.7	i
COc1cccc(-c2ncn(CCc3ccccc3OC)c2CC(C)C)c1	-24	-50	-6.3	i
O=C(C[C@H]1CC[C@H]2[C@@H](COC[C@@H](O)CN2C(=O)Nc2ccccc2)O1)NCCCN1CCOCC1	-2	-8	0.5	i
CCCNC(=O)N1CC2(CN(C(=O)C3CC3)C2)c2c([nH]c3cc(OC)ccc23)[C@@H]1CO	5	-1	-1.7	i
CN(C)C(=O)[C@@H]1[C@@H](CO)[C@@H]2Cn3c(ccc(-c4ccccc4)c3=O)[C@@H]2N1Cc1ccccc1F	-9	-4	-4.2	i
COc1ccc(S(=O)(=O)N[C@H]2C=C[C@@H](CC(=O)N3CCC(Cc4ccccc4)CC3)O[C@H]2CO)cc1	-5	-22	3.1	i
Cc1noc(C)c1S(=O)(=O)Nc1ccc2c(c1)CC(=O)N([C@@H](C)CO)C[C@H](C)[C@@H](CN(C)Cc1ccc(C(F)(F)F)cc1)O2	-4	-8	2.3	i
CO[C@@H]1CN(C)C(=O)c2ccc(NC(=O)C3CC3)cc2OC[C@@H](C)N(Cc2ccccc2)C[C@@H]1C	-4	-7	13	i
C[C@@H]1CN([C@@H](C)CO)C(=O)c2cc(NC(=O)Cc3cn(C)c4ccccc34)ccc2O[C@@H]1CN(C)Cc1ccc(C(F)(F)F)cc1	2	-11	2.5	i
CO[C@H]1CN(C)C(=O)c2cc(NC(=O)CC(F)(F)F)ccc2OC[C@H](C)N(CC2CC2)C[C@@H]1C	-1	0	0.8	i
O=C(Nc1ccccc1F)N[C@H]1CC[C@@H](CCNS(=O)(=O)c2ccccc2)O[C@H]1CO	-1	1	-0.8	i
COc1ccc(C#Cc2ccc([C@H]3[C@H]4CN(C(=O)c5ccncc5)CCCCN4[C@H]3CO)cc2)cc1	-2	-34	27	i
COc1cccc(-c2ccc([C@H]3[C@H]4CN(CC5CC5)CCCCN4[C@H]3CO)cc2)c1	6	1	4.9	i
C/C=C/c1ccc([C@@H]2[C@@H](CO)N(C(C)=O)C23CN(C(=O)c2ccccc2)C3)cc1	-3	-3	-2.1	i
SMILES	Ecoli rRNA inh	Ecoli rRNA inh OD600	Ecoli rRNA inh RFP	FGF22 binding
C[C@H](CO)N1C[C@H](C)[C@H](CN(C)S(=O)(=O)c2cn(C)cn2)OCCCC[C@H](C)Oc2ccc(NS(=O)(=O)c3cccs3)cc2C1=O	-2	-8	-2.0	i
Cc1ccc(S(=O)(=O)N[C@@H]2CC[C@@H](CC(=O)NCc3ccccc3F)O[C@H]2CO)cc1	-1	1	2.1	i
CO[C@@H]1CN(C)C(=O)c2cc(NC(=O)NC(C)C)ccc2OC[C@@H](C)N(C(=O)C2CCC2)C[C@@H]1C	0	3	-0.6	i
COc1ccccc1S(=O)(=O)N[C@@H]1C=C[C@H](CC(=O)N2CCCCC2)O[C@H]1CO	1	9	-0.2	i
C[C@H](CO)N1C[C@H](C)[C@@H](CN(C)C(=O)Nc2ccccc2)Oc2ncc(-c3cccnc3)cc2C1=O	-1	0	0.0	i
CO[C@@H]1CN(C)C(=O)c2ccc(NC(=O)c3ccc4c(c3)OCO4)cc2OC[C@H](C)N(CC2CC2)C[C@@H]1C	4	3	-4.9	i
O=C(C[C@@H]1CC[C@@H]2NC[C@H](O)COC[C@H]2O1)Nc1ccccc1	0	-3	1.8	i
CCCC#Cc1cnc2c(c1)C(=O)N([C@H](C)CO)C[C@H](C)[C@@H](CN(C)CCC)O2	2	8	3.6	i
O=C(CC(F)(F)F)N1C[C@@H]2[C@H](c3ccccc31)[C@@H](CO)N2C(=O)c1ccncc1	3	17	-0.4	i
CCCC#Cc1ccc2c(c1)O[C@H](CN(C)C(=O)c1ccccn1)[C@@H](C)CN([C@H](C)CO)S2(=O)=O	-1	-3	-2.5	i
C[C@H]1CN([C@@H](C)CO)C(=O)Cc2cc(NC(=O)Nc3ccc4c(c3)OCO4)ccc2O[C@H]1CN(C)S(=O)(=O)c1cccs1	-6	-4	0.6	i
C[C@@H]1CN([C@@H](C)CO)C(=O)Cc2cc(NC(=O)Cc3cn(C)c4ccccc34)ccc2O[C@@H]1CN(C)S(=O)(=O)c1ccc(F)cc1	6	2	-0.1	i
C[C@@H]1CN([C@@H](C)CO)C(=O)c2cccc(NC(=O)Nc3ccc4c(c3)OCO4)c2O[C@H]1CN(C)C(=O)Nc1ccc(C(F)(F)F)cc1	-4	-4	-2.2	i
C[C@H]1CCCCO[C@H](CN(C)Cc2ccccc2)[C@@H](C)CN([C@@H](C)CO)C(=O)c2cc(NC(=O)Nc3ccccc3)ccc2O1	6	-18	12	i
CCN1[C@H](C(=O)N(C)C)[C@@H](CO)[C@@H]2Cn3c(ccc(-c4ccccc4OC)c3=O)[C@@H]21	1	7	-0.1	i
CC(C)NC(=O)N[C@H]1C=C[C@H](CC(=O)NCCN2CCCC2)O[C@H]1CO	8	7	-1.6	i
O=C(NC1CCCC1)[C@@H]1[C@@H](CO)[C@@H]2Cn3c(cccc3=O)[C@H]1N2Cc1cc(F)ccc1F	0	15	0.5	i
COc1ccc2c3c([nH]c2c1)[C@@H](CO)N(Cc1ccccn1)CC31CN(C(=O)c2ccccn2)C1	0	6	1.1	i
COCC#Cc1cnc2c(c1)C(=O)N([C@H](C)CO)C[C@H](C)[C@H](CN(C)C(C)=O)O2	2	3	-1.6	i
COc1cccc(-c2ccc(C3[C@H]4CNC[C@@H]3N4Cc3ccccc3F)cc2)c1 (stereo partly drawn)	0&-36	-5&-49	0.2&-2.6	i
CCCCN1CC(COCc2ccccc2)Oc2cccc(N3CCCCC3)c2S1(=O)=O (stereo not drawn)	42	7	58	i
CO[C@@H]1CN(C)C(=O)c2ccc(NC(C)=O)cc2OC[C@@H](C)N(CCC(F)(F)F)C[C@H]1C	-2	-2	0.7	i
C[C@@H]1CN([C@H](C)CO)C(=O)Cc2cc(NC(=O)C3CC3)ccc2O[C@H]1CN(C)S(=O)(=O)c1ccc(F)cc1	2	9	-1.5	i
CCCNC(=O)N1[C@H](C#N)[C@H](c2ccccc2-c2ccccc2)[C@@H]1CO	-1	7	-2.3	i
COC(=O)C[C@@H]1CC[C@H]2[C@H](COc3ccc(NC(=O)Nc4cc(C)cc(C)c4)cc3C(=O)N2C)O1	-3	-6	2.5	i

Results in Ecoli rRNA inh RFP and Ecoli rRNA inh OD600, for 3 of the compounds above:
molecule,Ecoli rRNA inh RFP,Ecoli rRNA inh OD600
CCCCN1CC(COCc2ccccc2)Oc2cccc(N3CCCCC3)c2S1(=O)=O (stereo not drawn),58,7
C[C@H](CO)N1C[C@H](C)[C@@H](CN(C)C(=O)Nc2ccccc2)Oc2ncc(-c3cccnc3)cc2C1=O,0.0,0
C[C@@H]1CN([C@H](C)CO)C(=O)Cc2cc(NC(=O)C3CC3)ccc2O[C@H]1CN(C)S(=O)(=O)c1ccc(F)cc1,-1.5,9

3 of the compounds above, with two lines to a compound:
Order of values – Ecoli rRNA inh | Ecoli rRNA inh OD600 | Ecoli rRNA inh RFP | FGF22 binding
C[C@H]1CN([C@@H](C)CO)C(=O)Cc2cc(NC(=O)Nc3ccc4c(c3)OCO4)ccc2O[C@H]1CN(C)S(=O)(=O)c1cccs1
→ -6 | -4 | 0.6 | i
C[C@@H]1CN([C@@H](C)CO)C(=O)Cc2cc(NC(=O)Cc3cn(C)c4ccccc34)ccc2O[C@@H]1CN(C)S(=O)(=O)c1ccc(F)cc1
→ 6 | 2 | -0.1 | i
C[C@@H]1CN([C@@H](C)CO)C(=O)c2cccc(NC(=O)Nc3ccc4c(c3)OCO4)c2O[C@H]1CN(C)C(=O)Nc1ccc(C(F)(F)F)cc1
→ -4 | -4 | -2.2 | i

Other records.
SMILES	Ecoli rRNA inh	Ecoli rRNA inh OD600	Ecoli rRNA inh RFP	FGF22 binding
C/C=C/c1ccc2c(c1)O[C@@H](CN(C)C(=O)NC1CCCC1)[C@@H](C)CN([C@@H](C)CO)S2(=O)=O	-7	-10	-1.0	i
CCCC#Cc1ccc([C@H]2[C@@H](CO)N3CCCCN(S(=O)(=O)c4ccccc4C)C[C@H]23)cc1	-56	-54	-7.3	i
CCCNC(=O)N1CC2(CCN(S(C)(=O)=O)CC2)c2c(n(C)c3cc(OC)ccc23)[C@@H]1CO	2	3	0.8	i
COc1ccc(NC(=O)N(C)C[C@@H]2Oc3c(NS(=O)(=O)c4ccc(Cl)cc4)cccc3C(=O)N([C@@H](C)CO)C[C@@H]2C)cc1	0	6	2.2	i
COc1ccccc1-c1ccc([C@@H]2[C@@H](C#N)N(C(=O)C3CCOCC3)[C@H]2CO)cc1	0	11	1.9	i
O=C([C@H]1[C@H](CO)[C@H]2Cn3c(ccc(-c4ccccc4)c3=O)[C@H]2N1Cc1cocn1)N1CCCCC1	2	-4	-0.6	i
O=C(C[C@@H]1CC[C@H](NC(=O)C2CCC2)[C@@H](CO)O1)Nc1nccs1	4	8	-4.1	i
C[C@@H]1CN([C@@H](C)CO)S(=O)(=O)c2ccc(-c3cccc(C#N)c3)cc2O[C@H]1CN(C)C(=O)c1ccncc1	-4	-4	-1.4	i
CC(C)NC(=O)N(C)C[C@@H]1Oc2ncc(C#Cc3ccc(F)cc3)cc2C(=O)N([C@@H](C)CO)C[C@@H]1C	-2	5	-3.4	i
C[C@@H]1CN([C@H](C)CO)C(=O)CCCn2cc(nn2)CO[C@@H]1CN(C)CC1CCCCC1	-2	-3	-2.6	i
COc1ccc(NC(=O)N(C)C[C@@H]2Oc3c(NS(=O)(=O)c4ccc(C)cc4)cccc3C(=O)N([C@H](C)CO)C[C@@H]2C)cc1	-3	4	2.9	i
CCCNC(=O)N(C)C[C@@H]1Oc2cc(C#CC3CC3)ccc2S(=O)(=O)N([C@H](C)CO)C[C@@H]1C	-4	5	-4.5	i
CC(C)NC(=O)N[C@@H]1CC[C@@H](CCNS(=O)(=O)Cc2ccccc2)O[C@@H]1CO	2	6	-0.9	i
C[C@H]1CN([C@@H](C)CO)C(=O)c2cc(Br)cnc2O[C@H]1CN(C)C(=O)c1ccccc1F	2	16	-2.5	i
Cc1noc(C)c1NC(=O)Nc1ccc2c(c1)C(=O)N([C@H](C)CO)C[C@H](C)[C@H](CN(C)Cc1ccc(C(=O)Nc3ccccc3N)cc1)O2	1	5	-2.2	i
O=C(C[C@@H]1CC[C@@H]2[C@H](COC[C@@H](O)CN2C(=O)c2ccc3c(c2)OCO3)O1)NC1CCCC1	1	2	0.4	i
C[C@@H]1CN([C@H](C)CO)C(=O)Cc2cc(NC(=O)C3CC3)ccc2O[C@H]1CN(C)CC1CCCCC1	2	12	0.5	i
CN(C)C(=O)C[C@H]1C[C@@H]2c3cc(NS(C)(=O)=O)ccc3O[C@@H]2[C@H](CO)O1	6	5	-0.7	i
N#Cc1cccc(-c2ccc([C@H]3[C@@H](CO)N4CCCCN(C(=O)Nc5cccc(F)c5)C[C@H]34)cc2)c1	-58	-74	-17	i
C[C@@H]1CCCCO[C@H](CN(C)C(=O)Nc2ccc(C(F)(F)F)cc2)[C@H](C)CN([C@@H](C)CO)C(=O)c2cc(NC(=O)NC3CCCCC3)ccc2O1	-3	-8	-2.5	i

Molecules above with a Cl atom:
SMILES	Ecoli rRNA inh	Ecoli rRNA inh OD600	Ecoli rRNA inh RFP	FGF22 binding
CN1C(=O)c2cc(NC(=O)Nc3cccc(Cl)c3)ccc2OC[C@@H]2O[C@H](CC(=O)NCCc3ccncc3)CC[C@H]21	-5	-13	3.3	i
COc1ccc(NC(=O)N(C)C[C@@H]2Oc3c(NS(=O)(=O)c4ccc(Cl)cc4)cccc3C(=O)N([C@@H](C)CO)C[C@@H]2C)cc1	0	6	2.2	i
